VDR inh: inhibitors of human vitamin D receptor. P11473. VDR-SRC2-3 peptide fluorescence polarization, 2 h. Potency, µM, without a hit: max response, negative = inhibition, usual class: inhibitors. 400,000 compounds, 0.93% hits; active = well fitted inhibition curve with a large enough effect; inconclusive = small, poorly fitted or top-dose-only effect, or another doubt; inactive = no such curve, though single readings can be large or run the other way; note: series mostly up to about 120 µM
Target sequence (P11473 whole entry, looked up): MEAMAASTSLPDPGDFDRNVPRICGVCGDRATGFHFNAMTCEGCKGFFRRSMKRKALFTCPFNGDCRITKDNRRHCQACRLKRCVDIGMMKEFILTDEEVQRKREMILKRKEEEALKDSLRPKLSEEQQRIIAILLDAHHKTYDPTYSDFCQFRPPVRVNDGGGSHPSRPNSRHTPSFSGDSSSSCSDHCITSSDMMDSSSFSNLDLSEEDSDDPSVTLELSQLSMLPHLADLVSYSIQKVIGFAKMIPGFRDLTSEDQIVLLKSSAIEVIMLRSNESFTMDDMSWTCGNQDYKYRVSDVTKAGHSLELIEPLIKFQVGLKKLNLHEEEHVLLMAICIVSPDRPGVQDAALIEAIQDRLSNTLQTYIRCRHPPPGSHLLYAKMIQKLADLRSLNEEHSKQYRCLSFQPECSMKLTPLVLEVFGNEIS
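Two reagent solutions held at 4 deg C in the dark were dispensed, compounds pinned at 23 nl, and the mixture incubated 2 h at room temperature. Read-out: fluorescence polarization of VDR–SRC2-3 peptide binding.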
The depositor's hits bear a star; ? = inconclusive; & = joins results of further samples. % is set by controls: 0 for no effect and ±100 for the full control effect; potency is the fitted concentration of half-maximal effect. A portion of the library; rates above refer to the full screens.

SMILES | VDR inh
CN(c1ccc(OC(=O)CC2OC(=O)c3ccccc32)cc1)S(=O)(=O)c1ccccc1 (stereo not drawn) | -15%
CCc1ccc(NC(=O)COc2coc(CN3CCc4ccccc4C3)cc2=O)cc1 | -27%
COc1ccc(C(CNC(=O)C2CC(=O)N(Cc3ccc(C)cc3)C2)N(C)C)cc1 (stereo not drawn) | -8%
CCCCn1c(N)c(N(CC(C)C)C(=O)C2=NN(c3cc(C)ccc3C)C(=O)CC2)c(=O)[nH]c1=O | -5%
O=C(CCN1C(=O)c2ccccc2S1(=O)=O)NCc1ccccc1 | -6%
CCOc1nc2cnccc2n(CC(=O)Nc2ccc(C)c(C)c2)c1=O | -5%
CC(=O)Nc1ccccc1C(=O)N1CCN(Cc2ccccc2)CC1 | -5%
COC(CNc1cc(=O)oc2ccccc12)OC | -5%
CCN(CC)C1CCN(C(=O)c2cc(COc3cccc4cccnc34)on2)C1 (stereo not drawn) | -14%
Cc1ccc(NC(=O)c2noc(C(C)C)c2[N+](=O)[O-])cc1 | -5%
CCCCCCCCCCCCCCCCCC(=O)OC(CC(=O)O)C[N+](C)(C)C (stereo not drawn) | 17%
O=c1nc(N/N=C/c2c[nH]c3ccccc23)cn[nH]1 | 4%
COc1ccc(CCNC(=O)c2cc3sc(Cl)cc3n2C)cc1OC | 9%
Cc1ccccc1C(=O)c1cn[nH]c1-c1ccccc1O | 3%
CN(CC(=O)Nc1ccccc1Cl)C(=O)COC(=O)C1CC1 | -6%
N#CCSc1nnc(-c2c[nH]c3ccccc23)o1 | -6%
COc1ccc(NC(=O)COc2ccccc2C)cc1S(=O)(=O)N1CCCCC1 | -5%
Cc1ccc(S(=O)(=O)CCCS(=O)(=O)c2ccc(C)cc2)cc1 | -5%
Cc1ccc(-n2ncc3c(=O)n(CC(=O)NCc4ccco4)cnc32)cc1 | 6%
N[C@@](C(=O)O)(c1ccc(P(=O)(O)O)cc1)C1CC1 | 1%
Cn1c(C(=O)NCc2ccco2)cc2c(=O)[nH]c3ccccc3c21 | 2%
CCOC(=O)c1sc(=NC(=O)c2cccc(OC)c2)n(C)c1C | 27%
COc1ccc(-c2nc(NC(=O)Cn3ccc(C(F)(F)F)n3)sc2C)cc1 | 2%
O=C1C=C(c2ccc3c(c2)OCO3)C[C@@H](c2ccc3c(c2)OCO3)C1 | -19%
CCn1c(CSCc2c(Cl)cccc2Cl)n[nH]c1=S | 6%
COc1ccccc1NS(=O)(=O)c1cc(NC(C)=O)ccc1N1CCCCC1 | ?
COc1ccc(S(=O)(=O)N(CC(=O)Nc2cc(Cl)ccc2C)Cc2ccccc2)cc1OC | -5%
Cc1cccc(C)c1NC(=O)COC(=O)CN1C(=O)C2CCCCC2C1=O (stereo not drawn) | 7%
CCCCn1nc(NC(=O)COC)c2cc3cc(OC)ccc3nc21 | -3%
COc1cccc(C(=O)Nc2cccnc2)c1 | 5%
COc1ccc(CCNC(=S)NC(=O)c2cc(OC)c(OC)c(OC)c2)cc1OC | -15%
C[C@H](CN1c2ccccc2Sc2cccnc21)N(C)C | -27%
COc1ccc(CCNC(=O)CCCCCn2c(=O)[nH]c3cc(OC)c(OC)cc3c2=O)cc1OC | -3%
Nc1nc(-c2ccccc2)c(N=Nc2cccnc2)s1 | 5%
Cc1ccc(NC(=O)Cc2cn(C)c3ccccc23)cc1F | -3%
C=CCn1c(O)c(CN2CCOCC2)c(C)c(C#N)c1=O | 2%
O=C(CNS(=O)(=O)c1ccc(Br)cc1)N1CCOCC1 | -2%
Cc1cccc(OCc2nnc(SCC(=O)Nc3ccc(C)c(C)c3)o2)c1 | 0%
CCOC(=O)N1CCN(C2OC(=O)c3ccccc32)CC1 (stereo not drawn) | 5%
C=CCOC(=O)N[C@@H](c1cccs1)C(C(C)=O)C(C)=O | 4%
CCOC(=O)c1c(-n2cnnn2)sc(C)c1C | ?
CCOc1ccccc1NC(=O)CSc1nnc(CNC(=O)c2c(F)cccc2Cl)o1 | 4%
Cc1ccc2c(c1)C1CN(C)CCC1N2Sc1ccccc1[N+](=O)[O-] (stereo not drawn) | -12%
Cc1ccc(-c2nn(C)c(=O)c3ccccc23)cc1CN1CCCCC1 | -15%
Cn1cc(S(=O)(=O)N2CCCC2)cc1C(=O)NCc1ccccc1 | 8%
O=C(CSCc1ccc(C(=O)O)cc1)Nc1ccc2ccccc2c1 | -12%
COc1ccc(-c2noc(CCC(N)=O)n2)cc1OC | -13%
COc1ccccc1-c1cc(C(=O)Nc2ccc(F)cc2F)no1 | 7%
CCCCN(Cc1ccccc1)c1ncnc2nc[nH]c12 | -1%
COc1ccc(OC)c(NC(=O)C(Cc2ccccc2)NS(=O)(=O)c2ccc3c(c2)CCC(=O)N3)c1 (stereo not drawn) | -13%
CCOC(=O)N1CCC(=NNC(=O)c2ccc(O)cc2)CC1 | -8%
CCCCn1c(N)c(N(CC(C)C)C(=O)c2ccc(-n3c(C)ccc3C)cc2)c(=O)[nH]c1=O | -23%
O=S(=O)(c1ccc(-c2ccon2)s1)N1CCOCC1 | -7%
COc1ccc(NC(=O)C2CCN(S(=O)(=O)c3ccc4[nH]c(=O)ccc4c3)CC2)c(OC)c1 | 0%
COc1ccc(NC(=O)Cn2c(=O)n(Cc3nc(C)no3)c(=O)c3cc4c(cc32)OCO4)cc1 | 5%
N#C/C(=C\c1cccs1)c1nc2ccccc2[nH]1 | -7%
CC(NCC(=O)NCC(=O)Nc1ccc(F)cc1)c1cccc(C(F)(F)F)c1 (stereo not drawn) | 8%
Nc1cc2c(cc1Br)[nH]c(=O)c1ccccc12 | -1%
CCc1ccccc1NC(=O)Cn1nnc(-c2cccnc2)n1 | 14%
COc1ccccc1N1CCN(C(=O)CSc2nnc(NC(=O)c3ccco3)s2)CC1 | -4%

Remaining list, next part:
SMILES | VDR inh
COCC(=O)NCCNc1nc2ccc(C)cc2cc1C | -1%
COc1ccc(NC(=S)Nc2ncccc2C)cc1OC | -12%
Oc1ccc2nnc3c(Br)cnn3c2c1 | -13%
COc1ccc(C(=O)N2CCN(CCNC(=O)C(=O)Nc3ccc(Br)cc3)CC2)cc1 | 3%
CCCCNC(=O)CCn1nc(-c2ccc(Cl)cc2)ccc1=O | -2%
Cn1ccc(CC(=O)N2CCC(N3CCC(C(=O)N4CCCC4)CC3)CC2)c1 | -1%
Cc1c(Cl)cccc1NC(=O)Cn1c(CCC(=O)O)ccc1-c1ccccc1 | -22%
Cc1ccc(C(C)C)c(OCCCN2C(=O)NC(C)(C)C2=O)c1 | 12%
COc1ccccc1OCC(=O)Nc1nc2c(s1)CC(C)CC2 (stereo not drawn) | 7%
CC(=O)Nc1ccc(N=Cc2ccc[nH]2)cc1 | 16%
C=CCn1c(SCC(=O)Nc2nc(C)cs2)nnc1C(C)NC(=O)c1ccccc1Cl (stereo not drawn) | 6%
COc1ccc(C2CC(=O)N(Cc3ccc(C)cc3)c3c2c(C)nn3-c2nc(C)cc(C)n2)c(OC)c1 (stereo not drawn) | 11%
Cc1ccc2nc(NC(=O)C3CSC4(C)CCC(=O)N34)sc2c1 (stereo not drawn) | -17%
CCCC1C(=O)N(Cc2ccccc2)C(=O)CC1C (stereo not drawn) | -8%
CC1=CC(C)(C)N=C(Nc2nc(C)c3cc(C)cc(C)c3n2)N1 | -15%
CCCn1cnc2scc(-c3ccc(OC)cc3)c2c1=O | -7%
CCO[C@@H]1OC(C(=O)N2CCN(Cc3ccc4c(c3)OCO4)CC2)=C[C@H](C2CCCCC2)[C@H]1CCCO | -13%
C=CCC[C@@H](Cc1ccc(F)cc1)C(=O)OC[C@@H](NC(=O)[C@H](CC=C)CC(=O)N(CCO)Cc1ccccc1)c1ccccc1 | -16%
CCOC(=O)N1CCN(CC(=O)c2ccc(O)cc2O)CC1 | 7%
CN1CCN(CC#CCC(O)(c2ccccc2)c2ccccc2)CC1 | -7%
NNC(=O)c1ccc(COc2cccc3ccccc23)cc1 | -17%
CCOC(=O)c1c(C)oc2ncnc(Nc3ccc(OCC)cc3)c12 | 4%
COCCN1C(=O)/C(=C/c2ccc(Oc3ccc([N+](=O)[O-])cn3)c(OC)c2)SC1=Nc1ccccc1 | -9%
Cc1ccc(/C=C2/NC(=O)N(Cc3ccc(Br)cc3)C2=O)o1 | ?
Cc1cc(C)cc(-n2ccnc2SCC(=O)c2c(N)n(C3CC3)c(=O)[nH]c2=O)c1 | -10%
Cc1nn(CC(=O)NCCc2cccs2)c(=O)c2cc3ccccc3n12 | -5%
CC(C)(C)N1[C@@H](CC(=O)O)c2cc(C(F)(F)F)ccc2S1(=O)=O | -10%
COc1ccc(-c2cc3nc(C)n(N)c(=O)c3s2)cc1 | 6%
O=C(CN1CCCC1)NCC1(c2ccccc2)CCOCC1 | -16%
CC(C)c1nnc(NC(=O)c2cccc(-n3cnnn3)c2)s1 | -7%
CC(NC(=O)C(=O)NCCN1CCN(C(=O)c2ccc([N+](=O)[O-])cc2)CC1)c1ccccc1 (stereo not drawn) | -8%
O=C(c1ccco1)N(Cc1cccs1)c1ccc(O)cc1 | -6%
O=P(/C(=N/O)Sc1ccccc1)(N1CCOCC1)N1CCOCC1 | 4%
Cn1c(SCC(=O)C(C)(C)C)nnc1-c1ccc(F)cc1 | 0%
Cc1ccc(NC(=O)C2Cc3ccccc3CN2C(=O)c2ccco2)cc1S(=O)(=O)N(C)C (stereo not drawn) | 5%
COc1ccc(C(=O)NC2(C(F)(F)F)NC(=O)N(CCCc3ccccc3)C2=O)cc1OC (stereo not drawn) | -9%
COc1ccc(OC)c(C2=NS(=O)(=O)N(C)C(C(=O)Nc3ccc(F)cc3F)=C2)c1 | ?
COc1ccc(CNC(=O)c2ccc(Cn3nc(C)cc3C)o2)cc1 | -2%
CC[C@]12c3[nH]c4ccc(OC)cc4c3CCN1C(=O)C(CC(=O)NCC13CC4CC(CC(C4)C1)C3)C[C@@H]2C(=O)N1CCN(C(=O)c2ccco2)CC1 (stereo partly drawn) | -13%
COc1ccc(C(=O)N2CCn3c(C)ccc3C2C)cc1 (stereo not drawn) | 3%

Part of the list above, as labelled records:
Cn1c(SCC(=O)C(C)(C)C)nnc1-c1ccc(F)cc1
- VDR inh: 0%
Cc1ccc(NC(=O)C2Cc3ccccc3CN2C(=O)c2ccco2)cc1S(=O)(=O)N(C)C (stereo not drawn)
- VDR inh: 5%
COc1ccc(C(=O)NC2(C(F)(F)F)NC(=O)N(CCCc3ccccc3)C2=O)cc1OC (stereo not drawn)
- VDR inh: -9%
COc1ccc(OC)c(C2=NS(=O)(=O)N(C)C(C(=O)Nc3ccc(F)cc3F)=C2)c1
- VDR inh: ?

Continuation.
SMILES | VDR inh
Cc1c(Cc2ccccc2)c(=O)oc2cc(OC(=O)c3ccccc3)ccc12 | -10%
Cc1nc(SCC(=O)NC2CCCCC2C)c(C#N)c(C)c1C (stereo not drawn) | -6%
COc1ccc(Nc2nnc(-c3ccc(C)c(S(=O)(=O)NCCO)c3)c3ccccc23)cc1C(N)=O | -4%
O=C(CSc1nnc(Cc2cccs2)n1-c1ccc(Cl)cc1)NCc1ccc2c(c1)OCO2 | 5%
Cc1ccc(C(=O)NCc2cccnc2)cc1S(=O)(=O)N1CCCCCC1 | 8%
CC(=O)NS(=O)(=O)c1ccc(NC(=S)NC(=O)COc2ccccc2C)cc1 | -7%
CCc1ccc(NC(=O)c2ccc(NC(=O)C3CCCO3)cc2)cc1 (stereo not drawn) | 0%
C#CCOCCOCCOCCNc1nc(N2CCN(C(=O)[C@H](Cc3ccc(O)cc3)n3cc([C@@H](N)C(C)CC)nn3)CC2)nc(N2CCN(C(=O)[C@H](Cc3cc4ccccc4[nH]3)n3cc([C@@H](N)CC(C)C)nn3)CC2)n1 (stereo partly drawn) | 16%
CC(C)Cc1nnc(NC(=O)C2CC(=O)N(Cc3ccccc3)C2)s1 (stereo not drawn) | -3%
O=C1C(c2ccnc3ccccc23)=C(O)c2ccccc21 | 9%
O=C(O)CCCn1c(=O)[nH]c2ccccc2c1=O | -8%
Cc1cccc(/C=N/NC(=O)c2cc(C)nc3ccccc23)n1 | -12%
COc1ccc(Cc2nc(C(=O)Nc3ccccc3)cs2)cc1 | -5%
Cc1ccc(S(=O)(=O)Oc2ccc(C3C4=C(CCCC4=O)N(CCC(=O)O)C4=C3C(=O)CCC4)cc2Cl)cc1 | -24%
COc1ccccc1NS(=O)(=O)c1ccc(C(=O)NCc2ccco2)cc1 | 7%
Cc1ccc(N2C(=O)N(CC(=O)Nc3cc(C)cc(C)c3)C(=O)C2C)cc1 (stereo not drawn) | -1%
COc1ccc(OCCOc2ccccc2[N+](=O)[O-])cc1 | -10%
O=C1OC(CC(=O)N(Cc2nnc(-c3ccc(Cl)cc3)o2)C2CC2)c2ccccc21 (stereo not drawn) | 10%
CC(=O)OC(C)C[N+](C)(C)C (stereo not drawn) | 0%&-23%&3%
Cc1ccc(C(C)C)c(OCC(=O)N/N=C2\CC(=O)CC(C)(C)C2)c1 | -3%

Reformatted field by field: part of the list above
structure: O=C1OC(CC(=O)N(Cc2nnc(-c3ccc(Cl)cc3)o2)C2CC2)c2ccccc21 (stereo not drawn)
  VDR inh = 10%

structure: CC(=O)OC(C)C[N+](C)(C)C (stereo not drawn)
  VDR inh = 0%&-23%&3%

New compounds follow.
SMILES | VDR inh
CCCCn1c(CCCNC(=O)c2cccc(C)c2)nc2ccccc21 | -2%
COc1ccc(N(C(=O)c2cccnc2)S(=O)(=O)c2cccs2)cc1 | -11%
Cc1cccc(-c2noc(CN(C(=O)C(c3ccccc3)c3ccccc3)C(C)C)n2)c1 | 4%
Fc1cc(F)cc(-c2oncc2-c2nnnn2-c2ccccc2)c1 | -19%

Assay outcomes (PubChem BioAssay)
